# Mtb betalactam: beta-lactam sensitization of Mtb H37Rv | inhibition, % at 25 µM | M. tuberculosis H37Rv growth with meropenem, percent inhibition; hits of this screen are not shown here | AID 434955 | 330,000 tested, 0.27% active;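 active means about 74% or more and at least 40 points above the plate without the antibiotic, then above 30% in a dose series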;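 further: growth measured after seven days incubation then overnight dye step; 0% = bacteria only wells and 100% = bacteria with antibiotic; twin plates without the antibiotic show which effects depend on it; some results filed as inactive read as strong as hits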
# Active calls of the source: *.
entry	Compound	Mtb betalactam
1	O=C(Nc1ccccc1N1CCCCC1)C1=COCCO1	3
2	CC(C)(O)/C=C/C(=O)[C@](C)(O)C1[C@H](O)C[C@@]2(C)C3CC=C4C(C[C@H](O)[C@@H](O)C4(C)C)[C@]3(C)C(=O)C[C@]12C (stereo not given in full)	4
3	CCCn1c(N)c(C(=O)CSc2nnc(-c3cccs3)n2C2CC2)c(=O)[nH]c1=O	3
4	CCCC(C(=O)NNC(=O)c1ccncc1)c1ccccc1 (stereo not given)	1
5	Cc1ccc(O)c(NC(=S)NC(=O)/C=C/c2ccccc2)c1	16
6	COc1ccc(Cl)cc1NC(=O)CN(C)Cc1cccs1	-1
7	Cc1cc(C(=O)NC2CCCN(Cc3ccccc3F)C2)n[nH]1 (stereo not given)	0
8	CN(c1ccccc1)S(=O)(=O)c1cccc(NC(=O)c2ccc(=O)[nH]n2)c1	-2
9	CC(=O)N/C(=C\c1ccccc1)C(=O)OCC(=O)N(CC(C)C)c1c(N)n(Cc2ccccc2)c(=O)[nH]c1=O	0
10	Cc1nc(-c2cccc(NC(=O)c3ccc(-n4cccn4)cc3)c2)cs1	12
11	CC(C)c1ccc(C(=O)OCC(=O)c2c(N)n(C)c(=O)n(C)c2=O)cc1	0
12	COCc1c(C(=O)OCC(=O)c2ccc[nH]2)oc2ccccc12	1
13	Cc1ccsc1C(=O)OCC(=O)c1ccc[nH]1	9
14	CCCc1cc(=O)[nH]c(SCC(=O)N2c3ccccc3NC(=O)C2(C)C)n1	-4
15	O=c1[nH]c(-c2ccccc2)nn1-c1ccc(Br)cc1Br	-6
16	COc1ccc(CN(CC(=O)NC2CCCC2)C(=O)CCC(=O)Nc2nc(C)cs2)cc1	2

# Results in sequence from the entries so far:
# Nos. 1 to 5 in Mtb betalactam: 3, 4, 3, 1, 16

# The list continues:
entry	Compound	Mtb betalactam
17	COc1cccc(CNC(=O)COC(=O)c2nc(Cl)c(Cl)c(Cl)c2Cl)c1	-4
18	COc1cc(-c2nnc(SCC(=O)Nc3ccc(C(=O)O)cc3)o2)cc(OC)c1OC	-4
19	CN(CC(=O)Nc1ccccc1Cl)C(=O)CN1C(=O)NC(c2ccccc2)(c2ccccc2)C1=O	-5
20	Cc1ccc2nc(COC(=O)c3ccc(Cl)nc3)cc(=O)n2c1	8
21	COc1ccccc1-c1nnc(SCC(=O)Nc2ccc3[nH]c(=O)[nH]c3c2)n1N	1
22	CC(=O)N1c2ccc(C)cc2C(c2ccccc2)CC1C (stereo not given)	-8
23	CN1CCc2cc(O)c(O)cc2C(c2ccccc2)C1 (stereo not given)	2
24	CSc1ccc(S(=O)(=O)NC2CC3CCC2C3)cc1 (stereo not given)	-1
25	COc1ccc([C@H]2CC(=O)C=C(c3cc(C)ccc3F)C2)cc1	3
26	CC(C)(C)OC(=O)[C@H](Cc1ccccc1)NC(=O)c1nc[nH]c1C(=O)N1CCNCC1	-2
27	CC(C)(C)OC(=O)C[C@@H]1C/C=C\C[C@@H](CC(=O)N[C@H](CO)Cc2ccccc2)C(=O)N2CCC[C@@H]2COC1=O	2
28	COc1ccc(CN(C)S(=O)(=O)c2c(C)noc2C)cc1OC	-13
29	Nc1ncnc2c1ncn2[C@@H]1O[C@H](CNCc2ccc(-n3cccn3)cc2)[C@@H](O)[C@H]1O	-10
30	OCC[C@H]1C[C@@H](O)[C@H](O)[C@@]2(OCc3ccccc32)O1	4
31	CCN(c1ccccc1)S(=O)(=O)c1ccc(OC)c(NC(=O)Cc2ccccc2OC)c1	-4
32	C=CCNc1oc(-c2cccc(F)c2)nc1C#N	81

# Random excerpt: 2 records from the list, in no set order.
entry	Compound	Mtb betalactam
27	CC(C)(C)OC(=O)C[C@@H]1C/C=C\C[C@@H](CC(=O)N[C@H](CO)Cc2ccccc2)C(=O)N2CCC[C@@H]2COC1=O	2
3	CCCn1c(N)c(C(=O)CSc2nnc(-c3cccs3)n2C2CC2)c(=O)[nH]c1=O	3

# (list continues)
entry	Compound	Mtb betalactam
33	CNS(=O)(=O)c1cccc(C(=O)OCC(=O)Nc2nc(OC)cc(OC)n2)c1	4
34	O=C(Nc1ccc2c(c1)OCO2)c1ccccc1	-1
35	COCCCNC(=O)Cn1ccc(N)nc1=O	-4
36	COc1ccc(S(=O)(=O)N2CCCCC2)cc1NC(=O)C1CC1C (stereo not given)	0
37	CCCCNC(=O)[C@@](CC)(ONc1ccccc1C(F)(F)F)c1cccc2ccccc12	2
38	O=C(O)c1ccc(CSc2nnc(-c3ccc(Cl)cc3)o2)cc1	2
39	CCN1C(=O)c2cccc3c(S(=O)(=O)NCc4ccccc4)ccc1c23	2
40	ClC1=C(Cl)C2(Cl)C3C(Cl)C=CC3C1(Cl)C2(Cl)Cl (stereo not given)	20
41	C#CCOCCOCCOCCNc1nc(N2CCN(C(=O)CCCCCCCCCCNC(=O)Cn3cc(C[C@@H](C)O)nn3)CC2)nc(N2CCN(C(=O)CCCCCCCCCCNC(=O)[C@@H]([C@H](C)O)n3cc(C)nn3)CC2)n1	-1
42	O=C(CN1CCN(C(=O)c2cccc(S(=O)(=O)N3CCCC3)c2)CC1)Nc1ccccc1Cl	-4
43	CC(OC(=O)C12CCC(=O)N1c1ccccc1S2)C(=O)Nc1cccc(Cl)c1 (stereo not given)	-5
44	CCOc1ccc(C(=O)CCC(=O)NN2C(=O)NC3(CCCCC3)C2=O)cc1	1
45	Cc1ccc(S(=O)(=O)NCCC(=O)N2CCC(C)CC2)cc1	3
46	CC(C)Oc1ccc(OCCSc2nc3ccccc3n2CC(=O)O)cc1	4
47	Cn1nnnc1Sc1ncnc2scc(-c3ccc(Br)cc3)c12	99
48	COc1cc2cnc(-c3ccccc3)c(C(=O)c3ccc(F)cc3)c2cc1OC	4
49	CCc1ccc(NC(=O)CCc2ccc(CC)o2)cc1	93
50	O=C(O)CCCC(=O)OCCc1cc2ccccc2c(=O)o1	2
51	COc1ccc(NC(=O)c2cccc(-c3ccc(O)cc3)c2)cn1	18
52	CC(OC(=O)C1=COCCO1)C(=O)c1ccc(Br)cc1 (stereo not given)	59
53	COc1ccc(N2CCN(C(=O)CN(C)S(=O)(=O)c3cccs3)CC2)cc1	-4
54	Cc1cccc(N2CC(C(=O)Nc3ccccc3N3CCOCC3)CC2=O)c1C (stereo not given)	-3
55	O=C(COC(=O)c1cccc(S(=O)(=O)N2CCCCCC2)c1)Nc1ccccc1C(F)(F)F	-6
56	Cc1cccc(NC(=O)[C@H](Cc2c[nH]c3ccccc23)NC(=O)[C@@H]2Cc3ccccc3CN2)c1	0

# Shown field by field: part of the list above
52. CC(OC(=O)C1=COCCO1)C(=O)c1ccc(Br)cc1 (stereo not given)
  Mtb betalactam = 59

53. COc1ccc(N2CCN(C(=O)CN(C)S(=O)(=O)c3cccs3)CC2)cc1
  Mtb betalactam = -4

54. Cc1cccc(N2CC(C(=O)Nc3ccccc3N3CCOCC3)CC2=O)c1C (stereo not given)
  Mtb betalactam = -3

55. O=C(COC(=O)c1cccc(S(=O)(=O)N2CCCCCC2)c1)Nc1ccccc1C(F)(F)F
  Mtb betalactam = -6

# Going on with the list:
entry	Compound	Mtb betalactam
57	CCC(CO)Oc1cc(NC(=O)c2cccc(Cl)c2)c2ncn(C(C)C)c2c1 (stereo not given)	-6
58	COc1ccc(CCN(C)C(=O)Cc2ccc(-c3ccccc3)cc2)cc1OC	-2
59	CCC1CCCCN1C(=O)CSc1nnc(N)s1 (stereo not given)	-9
60	CN(C)S(=O)(=O)c1ccc(C(=O)Nc2cc3c(cc2C(=O)O)OCCCO3)cc1	0
61	Cc1ccc(C)c(C(=O)CCC(=O)Nc2ccc(N3CCN(C)CC3)cc2C)c1	10
62	CC(NC(=O)COC(=O)c1ccc(S(=O)(=O)N2CCOCC2)cc1)c1ccccc1 (stereo not given)	4
63	CC1CN(S(=O)(=O)c2cccc(C(=O)OCC(=O)NCc3ccccc3)c2)CC(C)O1 (stereo not given)	0
64	CC1(c2ccc(Cl)cc2)NC(=O)N(CC(=O)NCCC2=CCCCC2)C1=O (stereo not given)	-1
65	CCCn1nc(C(=O)OCC(=O)Nc2ccc(C)cc2)c2ccccc2c1=O	1
66	Cc1cc(OC(C)C(=O)NC(Cc2c[nH]c3ccc(O)cc23)C(=O)O)c2c(C)c(C)c(=O)oc2c1 (stereo not given)	-4
67	COc1cccc(CN(C)C(=O)CCNC(=O)c2ccco2)c1	2
68	COc1cccc(NC(=O)CNc2cc(S(=O)(=O)N3CCOCC3)ccc2N2CCCC2)c1	4
69	O=C(NCc1ccc(F)cc1)c1ccc(S(=O)(=O)N2CCCCC2)cc1	-3
70	O=C(COc1ccccc1Cl)Nc1cccc(S(=O)(=O)N2CCCC2)c1	-5
71	O=C(NNC(=O)C1CC1)c1cc(Br)c(Br)s1	-5
72	CCc1cc(=O)oc2cc(OCC(=O)N3CCC[C@H]3C(=O)O)ccc12	-4
73	COc1cc(OC)cc(C(=O)N2CCN(Cc3ccc4c(c3)OCO4)CC2)c1	3
74	CCCn1c(N)c(C(=O)CSc2nnc(-c3c[nH]c4ccccc34)n2C2CC2)c(=O)[nH]c1=O	-2
75	CCCC(/C=C/c1ccc(OC(C)=O)cc1)=C1/c2ccccc2C(=O)N1c1ccccc1	95
76	Cc1cccc2nc(CNC(=O)C3CCC(=O)N(Cc4ccccc4F)C3)cn12 (stereo not given)	-3
77	COc1ccc(NC(=O)Cn2cc(C(=O)C3CC3)c3ccccc32)cc1	3
78	CS(=O)(=O)c1ccc(NS(=O)(=O)c2ccc(Cl)c(C(=O)NC3=NCCS3)c2)cc1	-6
79	O=C(Cn1cnc2c(OCc3ccccc3)ncnc21)NCCc1c[nH]c2ccccc12	2
80	CCN(C[C@H]1N[C@@](C)(C(=O)OC)[C@H]2C(=O)N(C)C(=O)[C@@H]12)C(=O)C1CCCCC1	3
81	COC(=O)C1=C(c2ccc(F)cc2F)C[C@@H]2CC[C@H]1N2C	-4
82	CC(=O)Nc1ccc(C(=O)N2CCN(S(=O)(=O)c3ccc4c(c3)OCCCO4)CC2)cc1	1
83	COc1ccc([C@H]2CC(=O)C=C(c3cccc(C(C)C)c3)C2)cc1	59
84	COc1cccc(C(=O)Nc2cc(NC(=O)c3cccs3)ccc2C)c1	2
85	CC(C)CN(C(=O)CSc1nc2ccccc2c(=O)n1C)C1CCS(=O)(=O)C1 (stereo not given)	2
86	CCOc1ccc(N2C(=O)C3CCCN3C2=S)cc1 (stereo not given)	51
87	Cc1nc2cc(-c3ccccc3)nn2c(N)c1-c1ccccc1	2
88	COc1ccccc1/C=C/C(=O)OCC(=O)c1c[nH]c2ccccc12	0

# Some values from the results shown:
# Mtb betalactam result of CC(=O)Nc1ccc(C(=O)N2CCN(S(=O)(=O)c3ccc4c(c3)OCCCO4)CC2)cc1 is entered as 1
# Mtb betalactam result of CCOc1ccc(N2C(=O)C3CCCN3C2=S)cc1 (stereo not given) is entered as 51
# Mtb betalactam result of COc1cccc(C(=O)Nc2cc(NC(=O)c3cccs3)ccc2C)c1 is entered as 2
# Mtb betalactam result of COc1ccc([C@H]2CC(=O)C=C(c3cccc(C(C)C)c3)C2)cc1 is entered as 59

# More compounds.
entry	Compound	Mtb betalactam
89	CC(C)C(=O)N[C@H]1CCC2C3CC=C4C[C@@H](O)CC[C@]4(C)C3CC[C@@]21C (stereo not given in full)	-3
90	O=C(CCCOc1ccccc1)N1CCN(S(=O)(=O)c2ccccc2)CC1	3
91	Cc1cc(S(=O)(=O)NCCCN2CCOCC2)ccc1Br	-5
92	Cc1ccc(S(=O)(=O)N2CCN(C(=O)COC(=O)C3(C)CC3(Cl)Cl)CC2)c(C)c1 (stereo not given)	-3
93	C1N2CN3CN1CN(C2)C3	-9
94	COC(=O)c1cc2ccc(OC)cc2c2cc(OC)c(OC)cc12	11
95	Cc1cccc(C)c1NC(=O)COC(=O)CCc1c[nH]c2ccccc12	99
96	NCCCCCc1cn([C@@H](CCC(=O)O)C(=O)NCCCCCCCCCCC(=O)N2CCNCC2)nn1	-3
97	Cc1ccc(NC(=O)C2CCN(S(=O)(=O)c3cccc4nonc34)CC2)cc1	-6
98	COc1ccc(C(=O)O)cc1S(=O)(=O)Nc1ccc(N2CCCCC2)cc1	-3
99	Cc1n[nH]c(=O)c2c(NC(=O)CSc3nnnn3-c3ccc(O)cc3)oc(C)c12	0
100	CCOCc1c(C(=O)OCC(=O)Nc2ccccc2C(N)=O)oc2ccccc12	-2
101	CCCCn1c(N)c(N(CCC)C(=O)C2CCCC2)c(=O)[nH]c1=O	-7
102	CC(=O)c1ccc(NC(=O)C2CCN(S(=O)(=O)c3cccc4nonc34)CC2)cc1	0
103	CCOC(=O)C1=C(CC)Nc2ccccc2N/C1=N\S(=O)(=O)c1ccccc1OC	-6
104	C[C@@H]1CN([C@H](C)CO)C(=O)c2cc(NC(=O)Nc3ccc(C(F)(F)F)cc3)ccc2O[C@H]1CN(C)S(=O)(=O)c1ccccc1	97
105	N#Cc1cccc(C(=O)Nc2cc(S(=O)(=O)N3CCOCC3)ccc2N2CCCC2)c1	-2
106	Cc1ccc(S(=O)(=O)NCC(=O)OCc2cc(=O)oc3c(C)c(C)ccc23)cc1C	8
107	CSc1ccccc1C(=O)N1CCN(S(=O)(=O)c2sc(C(=O)O)c(C)c2C(=O)O)CC1	-8
108	O=C(Nc1nnc(C2CC2)s1)C1CCCCC1	6
109	Cc1cnc(C(=O)OCC(=O)Nc2ncc(Cl)cc2Cl)cn1	-9
110	C=CC[C@@H](CC(=O)N(CCO)Cc1ccccc1)C(=O)N[C@H](COC(=O)[C@H](CC=C)CC(=O)OC(C)(C)C)Cc1c[nH]c2ccccc12	1
111	COc1ccc(Cl)cc1NC(=O)CN(C)S(=O)(=O)c1cccs1	-7
112	Cc1ccc(NC(=O)CSc2nnnn2C2CCCC2)cc1S(=O)(=O)N1CCOCC1	-5
113	O=c1oc(CCO)cc2ccccc12	0
114	O=C(CNS(=O)(=O)c1ccc(Br)cc1Cl)OCC(=O)N1CCCC1=O	-1
115	COc1ccc(NC(=O)CN(C)C(=O)c2cccc(Oc3ccccc3)c2)cc1	5
116	O=C(NCc1ccccc1CN1CCCC1)c1cc2ccccc2o1	1
117	C[N+](C)(C)CC(=O)O	0
118	CCOc1ccc(N(CC(=O)NCCSc2ccccn2)S(=O)(=O)c2ccc(Cl)cc2)cc1	-6

# These rows are one share of the data; count on the stated rates, not on these rows.
